Polio RdRp inh: inhibitors of poliovirus RNA polymerase binding and polymerization; P03300; 150,000 compounds, 0.66% hits; poliovirus polymerase elongation, fluorescence polarization; stronger effect = lower value; AID 588519; % elongation, % (compound at 16.7 µg/mL); in the data active means % elongation below about 90%; further: some results filed as inactive read as strong as hits
Target sequence (P03300 1749-2209 limits assumed): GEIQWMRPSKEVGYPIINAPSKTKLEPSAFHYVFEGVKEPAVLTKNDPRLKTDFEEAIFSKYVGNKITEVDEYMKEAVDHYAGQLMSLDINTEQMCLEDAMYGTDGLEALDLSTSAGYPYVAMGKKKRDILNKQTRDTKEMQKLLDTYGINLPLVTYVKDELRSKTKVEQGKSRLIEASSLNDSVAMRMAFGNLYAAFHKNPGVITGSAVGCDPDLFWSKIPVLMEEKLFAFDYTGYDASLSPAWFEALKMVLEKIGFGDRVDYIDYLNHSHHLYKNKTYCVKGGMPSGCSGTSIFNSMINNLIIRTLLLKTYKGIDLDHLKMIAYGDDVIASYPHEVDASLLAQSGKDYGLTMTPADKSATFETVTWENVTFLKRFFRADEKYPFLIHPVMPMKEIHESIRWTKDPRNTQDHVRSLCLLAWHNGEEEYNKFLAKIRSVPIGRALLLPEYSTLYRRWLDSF
Polio RdRp inh intensity: recorded beside Polio RdRp inh, whose call it bears; % elongation; measured here: total intensity read-out; formula for this scale not given here;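 total fluorescence in place of polarization; lower means less elongation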
Active calls of the source: *. An excerpt, so the mix of outcomes need not match the whole.

SMILES	Polio RdRp inh	Polio RdRp inh intensity
Cc1ccc2c(c1)N(C(=O)CCC(=O)NCc1ccccc1Cl)CC(C)O2 (centres undefined)	106	115
O=C(c1ccco1)n1nc(-c2ccccc2)nc1NCc1ccc(Cl)cc1	104	107
CC1CCCN(c2nc3c(S(=O)(=O)c4ccc(C(C)C)cc4)nnn3c3ccsc23)C1 (centres undefined)	110	109
CC1=C(C(=O)Nc2cccnc2)C(c2ccc(F)cc2)n2nc(SCc3ccccc3)nc2N1 (centres undefined)	110	113
Cc1c(Cl)cccc1-c1ccc(/C=C(\C#N)c2nc3ccccc3[nH]2)o1	82	236
COc1ccc(-c2cc(C(=O)Oc3ccc(C#N)cc3)no2)cc1	104	97
COc1ccc(OC)c(NC(=O)c2cnc(Nc3ccc(C)c(Cl)c3)c3ccccc23)c1	104	105
COc1ccc(CNc2nc3c(-c4ccccc4)nnn3c3ccccc23)cc1	107	105
O=C(Cc1ccc(F)cc1)N1CCC(c2nc3c(nnn3Cc3ccc(F)cc3)c(=O)[nH]2)CC1	108	105
COc1ccc(N2CCN(C(=O)c3ccc(CS(=O)c4cccc(C)c4)o3)CC2)cc1 (centres undefined)	110	111
COc1ccc(C)cc1NC(c1nnc(-c2ccccc2)o1)c1ccc(F)cc1Cl (centres undefined)	103	103
COc1ccc(-c2cc(C(F)(F)F)n3nc(C(=O)Nc4sc5c(c4C#N)CCC(C)C5)cc3n2)cc1OC (centres undefined)	104	105
CCc1ccc(OCC2c3cc(OC)c(OC)cc3CCN2C(=O)c2ccc(S(=O)(=O)N3CCCC3)cc2)cc1 (centres undefined)	110	115
CCOC(=O)c1ccccc1NC(=O)Cc1c(C(=O)O)c(C)cn1C	104	108
O=S(=O)(Nc1ccc(-c2ccc(N3CCCCCC3)nn2)cc1)c1cccc(C(F)(F)F)c1	100	96
CC(C)COc1cccc(C(=O)Nc2ccc(-c3nc4ncccc4o3)cc2)c1	106	109
Cc1ccc2oc3c(c(=O)c2c1)C(c1ccc(F)cc1)N(Cc1ccc2c(c1)OCO2)C3=O (centres undefined)	105	111
COc1ccccc1CNC(=O)C1CCN(c2nn3c(=O)cc(C)nc3s2)CC1	103	103
Cc1cccc(-c2nc3c4ccccc4nc(NCc4ccc(Cl)cc4)n3n2)c1	99	104
CCOC(=O)c1c(NC(=O)CS(=O)(=O)c2ccc(C)cc2)sc2c1CCC(C)C2 (centres undefined)	108	113
CSCCC(NS(=O)(=O)c1ccc2c(c1)oc(=O)n2C)C(=O)NCc1ccc(Cl)cc1 (centres undefined)	106	117
O=C(Nc1ccc(F)c(Cl)c1)C1CCCN(c2cnccn2)C1 (centres undefined)	106	111
CC1CCN(S(=O)(=O)c2ccc3c(c2)c(=O)c(C(=O)N2CCN(c4cccc(Cl)c4)CC2)cn3C)CC1	105	112
CCCCc1ccc(-n2nc3ccc(NC(=O)c4cc5ccccc5o4)cc3n2)cc1	97	99

14 entries from above, sorted by molar mass, lowest first.
SMILES	Polio RdRp inh	Polio RdRp inh intensity
O=C(Nc1ccc(F)c(Cl)c1)C1CCCN(c2cnccn2)C1 (centres undefined)	106	111
CCOC(=O)c1ccccc1NC(=O)Cc1c(C(=O)O)c(C)cn1C	104	108
COc1ccc(CNc2nc3c(-c4ccccc4)nnn3c3ccccc23)cc1	107	105
Cc1ccc2c(c1)N(C(=O)CCC(=O)NCc1ccccc1Cl)CC(C)O2 (centres undefined)	106	115
Cc1cccc(-c2nc3c4ccccc4nc(NCc4ccc(Cl)cc4)n3n2)c1	99	104
COc1ccccc1CNC(=O)C1CCN(c2nn3c(=O)cc(C)nc3s2)CC1	103	103
COc1ccc(C)cc1NC(c1nnc(-c2ccccc2)o1)c1ccc(F)cc1Cl (centres undefined)	103	103
CCOC(=O)c1c(NC(=O)CS(=O)(=O)c2ccc(C)cc2)sc2c1CCC(C)C2 (centres undefined)	108	113
Cc1ccc2oc3c(c(=O)c2c1)C(c1ccc(F)cc1)N(Cc1ccc2c(c1)OCO2)C3=O (centres undefined)	105	111
COc1ccc(OC)c(NC(=O)c2cnc(Nc3ccc(C)c(Cl)c3)c3ccccc23)c1	104	105
CC1=C(C(=O)Nc2cccnc2)C(c2ccc(F)cc2)n2nc(SCc3ccccc3)nc2N1 (centres undefined)	110	113
O=S(=O)(Nc1ccc(-c2ccc(N3CCCCCC3)nn2)cc1)c1cccc(C(F)(F)F)c1	100	96
COc1ccc(-c2cc(C(F)(F)F)n3nc(C(=O)Nc4sc5c(c4C#N)CCC(C)C5)cc3n2)cc1OC (centres undefined)	104	105
CCc1ccc(OCC2c3cc(OC)c(OC)cc3CCN2C(=O)c2ccc(S(=O)(=O)N3CCCC3)cc2)cc1 (centres undefined)	110	115

The listing continues.
SMILES	Polio RdRp inh	Polio RdRp inh intensity
CCC(=O)N1CCc2cc(S(=O)(=O)NC(CC(C)C)C(=O)NCc3cccc(OC)c3)ccc21 (centres undefined)	101	101
Cc1cc(C)c(NC(=O)CN(c2ccccc2)S(=O)(=O)N(C)C)c(C)c1	101	105
COc1ccc(CCNC(=O)CCn2c(=O)c3cccn3c3cccnc32)c(OC)c1OC	104	107
Cc1nn(C)c2c1c(C(F)(F)F)cc(=O)n2C(C)C(=O)N1CCN(c2ccccc2)CC1 (centres undefined)	114	116
CCOc1ccc(NC(=O)CSc2ncnc3c2sc2ccccc23)cc1	114	108
NC(=O)C1CCN(C(=O)c2cccc(NC(=O)c3nsc4ccccc34)c2)CC1	104	106
COc1ccc(NC(=O)CCSc2nc(-c3ccc(OC)cc3)cc(C(F)(F)F)n2)cc1	105	108
Cc1ccc(Cn2c(SCc3ccc(C(=O)NC4CCCC4)cc3)nc3ccncc32)cc1	104	101
COC(=O)c1sc2cccc(F)c2c1S(=O)(=O)Nc1ccc(N(C)C)cc1	106	111
CCOc1ccc(NC(=O)Cn2c(=O)n(-c3ccccc3)c(=O)c3ccc(C(=O)NCc4ccc5c(c4)OCO5)cc32)cc1	101	98
Cc1ccc(Nc2c(-c3ccco3)nc3ccc(C)cn23)cc1	105	114
Cc1cc(S(=O)(=O)Nc2cc3c(cc2N2CCOCC2)n(C)c(=O)n3C)ccc1F	108	109
Cn1cnc(S(=O)(=O)N2CCC(C(=O)N3CCN(c4ccccc4F)CC3)CC2)c1	108	112
COc1cc(NC(=O)CSc2nc(-c3ccc(C)cc3)nc3c2Cc2ccccc2O3)cc(OC)c1	106	110
O=C(NCCc1csc(-c2ccc(Cl)cc2)n1)c1ccco1	107	114
Cn1nc(C(=O)NCc2ccc(Cl)cc2)c2c1-c1ccccc1SC2	114	110
COc1cccc(-c2ccnc3c(-c4ccccc4)c(C)nn23)c1	110	113
CC(C)c1ccc(C(=O)Nc2cccc3cccnc23)cc1	111	113
Cc1ccc(-n2c(=O)c3ccc(C(=O)NCc4ccco4)cc3n(Cc3cccc(Cl)c3)c2=O)cc1	104	106
Cc1ccc(CSc2nnc3[nH]c(=O)cc(C)n23)cc1	109	108
COc1ccc(CCCc2nnc(SCC(=O)Nc3cccc(C)c3)o2)cc1	106	108
CCOC(=O)c1cccc(NC(=O)CC2C(=O)N(c3ccc(F)cc3)C(=O)N2C(C)C)c1 (centres undefined)	105	106
CCOC(=O)N1CCc2c(sc3c2c(=O)n(-c2ccc(CC)cc2)c(=O)n3Cc2cccc(OC)c2)C1	103	105
COCCNC(=O)CSc1nc(-c2ccccc2C)nc2c1c(=O)n(C)c(=O)n2C	110	114
COCCCN1C(=O)c2oc3ccccc3c(=O)c2C12C(=O)N(C)c1ccccc12 (centres undefined)	115	112
Cc1ccc(CSc2nc3cccnc3n2Cc2ccc(C(=O)NCc3ccco3)cc2)cc1	111	116
COc1ccc(NC(=O)c2c(C)oc3ccc(O)c(CN4CCOCC4)c23)cc1	108	108
O=C(NC1CCCCC1)c1ccc2c(c1)N(Cc1cccc(Cl)c1)C(=O)c1ccccc1S2(=O)=O	106	112
Cc1ccn2c(=O)cc(CSc3nnc(C)s3)nc2c1	108	111
COc1cc(CNCCCSc2nnnn2C)cc(Br)c1OC	105	102
Cc1ccc(Nc2c3c(nc4ccccc24)CCC3)cc1F	106	107
CCCn1cnc2cc(NCc3ccccc3OCC)ccc21	108	111
COc1ccccc1CNC(=O)c1ccc(-c2nc(CS(=O)(=O)c3ccc(C)cc3)c(C)o2)cc1	103	105
CCN(C(=O)c1ccc2c(c1)N(Cc1cccc(Cl)c1)C(=O)c1ccccc1S2=O)c1ccccc1 (centres undefined)	103	105
COc1cccc(NC(=O)CN2C(=O)C3(SCC(=O)N3c3cc(C)cc(C)c3)c3ccccc32)c1 (centres undefined)	100	105
COc1ccc(Cn2c(=O)n(-c3ccc(F)c(Cl)c3)c(=O)c3c2c2cc(OC)ccc2n3C)cc1	110	112
Cc1ccc(S(=O)(=O)N(CC(=O)NCCSc2ccc(Cl)cc2)c2ccccc2C)cc1	107	112
COc1ccc(CCN2CCC(CNC(=O)c3cnn(-c4ccccc4)c3C3CCN(C(=O)OC(C)(C)C)CC3)CC2)cc1	108	107
Cc1cc(S(=O)(=O)Nc2ccc3oc4c(c3c2)CCCC4)ccc1Cl	109	110
Cc1ccc2oc(=O)c3cc(C(=O)Nc4cccc(C#N)c4)sc3c2c1	103	104
Cc1cc(C)c(Cn2c(=O)n(CCCCC(=O)NCc3ccccc3Cl)c(=O)c3ccccc32)c(C)c1	104	109
COCCCNC(=O)CCn1c(=O)c2ccccc2n(CC(=O)Nc2c(C)cc(C)cc2C)c1=O	103	106
Cc1cccc(-n2nnc(-c3nc(-c4cccs4)no3)c2N)c1	112	116
Cc1ccc(NC(=O)C2CCN(S(=O)(=O)c3cc(-c4noc(C)n4)ccc3C)CC2)c(C)c1	106	89
Cc1ccc2cc3cc(C(=O)N(C)c4ccccc4C)oc3nc2c1	113	114
Oc1c(C(c2ccccc2)N2CCN(Cc3ccccc3)CC2)sc2nc(-c3ccco3)nn12 (centres undefined)	97	103
CCOC(=O)c1cc(CC)sc1NC(=O)COc1ccccc1C	99	104
COc1ccc(CCNC(=O)c2cnc3ccc(C)cn3c2=O)cc1OC	105	108
Cc1cc(C)cc(NC(=O)N2CCC(N3CCN(Cc4ccccc4)C(=O)C3=O)CC2)c1	105	106
Cc1cccc(N2CCN(C(=O)Cn3c(-c4cccs4)cc4ccccc43)CC2)c1C	113	112
CCc1cccc(-n2c(=O)c3cccnc3n2CC(=O)Nc2ccc(OC)c(Cl)c2)c1	108	100
COc1ccc(OC)c(C2CC(=O)c3c([nH]c(C(=O)OC4CCC(C)CC4)c3C)C2)c1 (centres undefined)	109	112
COc1ccc(NC(=O)Cn2c(-c3ccc(F)cc3)cc(C(C)=O)c2C)c(OC)c1	104	96
CCc1cccc(NCc2ccccc2-c2nnc(-c3ccccc3Cl)o2)c1	108	110
O=C(NCc1ccc(Cl)cc1)C(=O)NCC(c1ccc2c(c1)OCO2)N1CCOCC1 (centres undefined)	104	113
COc1ccc(OCCn2nnc3sc4c(c3c2=O)CCC(C(C)(C)C)C4)cc1 (centres undefined)	115	107
Cc1nn(C)c2c1c(C(F)(F)F)cc(=O)n2CC(=O)N1CCCCC1C (centres undefined)	104	111
Cc1cc(NC(=O)c2cccn2-c2nnc(N3CCCCC3)s2)ccc1Br	115	115
Cc1ccc(-c2nonc2NC(=O)c2ccc(F)cc2)cc1C	106	113
COc1ccccc1C(=O)N(c1ccc(C)cc1)S(=O)(=O)c1ccc(Cl)cc1	105	111
More results:
SMILES	Polio RdRp inh	Polio RdRp inh intensity
COc1ccc(NC(=O)c2c(-c3ccc(C)cc3)nnc3ccccc23)cc1Cl	105	108
COc1ccc(C(=O)N2CCC(c3nc4ccccc4o3)CC2)cc1	102	103
O=C(COc1ccccc1)Nc1nnc2n1CCS2	111	111
COc1ccc(C2C=C(c3ccccc3)Nc3nc(NC(=O)c4cccc([N+](=O)[O-])c4)nn32)cc1 (centres undefined)	110	117
COc1ccc(Cl)cc1NC(=O)CCS(=O)(=O)c1nc(-c2cccs2)cc(C(F)(F)F)n1	104	106
CC(=O)c1ccc(S(=O)(=O)N2CCn3cccc3C2c2ccc(C)cc2)cc1 (centres undefined)	103	109
Cc1ccc(Cl)cc1N1CCN(CCCNC(=O)c2ccc3nc(N4CCCCC4)sc3c2)CC1	107	108
Cc1ccc(C)c(NC(=O)c2cc(S(=O)(=O)N3CCc4ccccc4C3)ccc2F)c1	106	112
COc1cc(NC(=O)CSc2ccc(-c3ccccn3)nn2)cc(OC)c1	110	115
CCCCOC(=O)/C(C#N)=C\c1ccc(-c2ccc(Cl)cc2)o1	108	114
COc1cccc(CNS(=O)(=O)c2ccc3c(c2)C(C(C)C)C(=O)N3)c1 (centres undefined)	105	97
CCOC(=O)c1ccc(N2C(=O)c3n[nH]c(-c4cccs4)c3C2c2cccc(OC)c2)cc1 (centres undefined)	105	107
O=C(CSc1nc(=O)[nH]c2c1CCC2)NCc1ccc(Cl)cc1	109	103
CCOc1ccc2ncc3c(-c4ccccc4)nn(CC(=O)Nc4cccc(F)c4)c3c2c1	110	117
CCc1cccc(NC(=O)c2c(C)oc3ncnc(N4CCCCC4)c23)c1	112	110
CCOC(=O)c1ccccc1NC(=O)CN(c1cc(C(F)(F)F)ccc1Cl)S(C)(=O)=O	106	108
COc1cccc(/C=C/c2nc3ccccc3c(=O)n2-c2ccc(Cl)cc2)c1OC	116	117
COc1ccc(NC(=O)CCn2c(=O)c3cccn3c3ccccc32)c(OC)c1	111	110
COc1ccc(-c2noc(N3CCC(C(=O)Nc4cccc(C)c4C)CC3)n2)cc1	110	105
CCc1ccc(OC(=O)c2sc3ncn(Cc4cccc(F)c4)c(=O)c3c2C)cc1	106	100
COc1ccccc1C1=NS(=O)(=O)N(C)C(C(=O)Nc2cc(OC)c(OC)c(OC)c2)=C1	108	105
Cc1cc(C)cc(NC(=O)N2CCC(CN3CCc4ccccc4C3)CC2)c1	115	114
COC(=O)c1ccccc1NC(=O)CN(c1ccc(Cl)cc1)S(=O)(=O)c1ccc(OC)cc1	106	106
COc1ccc(C)cc1Nc1nc(-c2cccc(Cl)c2)c2c(n1)-c1ccccc1OC2	113	108
CCOC(=O)C(CC)Sc1ncnc2sc3c(c12)CCCC3 (centres undefined)	105	111
Cc1ccc(CNC(=O)CCCCn2c(=O)c3ccccc3n(Cc3c(C)cc(C)cc3C)c2=O)cc1	103	105
CCOc1ccccc1NC(=O)Cn1c(=O)n(CCCC(=O)NCCOC)c(=O)c2cc(OC)c(OC)cc21	106	104
